Screening data (PubChem)
VDR inh – inhibitors of human vitamin D receptor | VDR-SRC2-3 peptide fluorescence polarization, 2 h | P11473 | Potency, µM, inactives show max response, negative = inhibition, hits mostly inhibitors | 400,000 compounds, 0.93% hits | AID 504847; active = well fitted inhibition curve with a large enough effect; inconclusive = small, poorly fitted or top-dose-only effect, or another doubt; inactive = no such curve, though single readings can be large or run the other way; also: series mostly up to about 120 µM
Target sequence (P11473 whole entry, looked up): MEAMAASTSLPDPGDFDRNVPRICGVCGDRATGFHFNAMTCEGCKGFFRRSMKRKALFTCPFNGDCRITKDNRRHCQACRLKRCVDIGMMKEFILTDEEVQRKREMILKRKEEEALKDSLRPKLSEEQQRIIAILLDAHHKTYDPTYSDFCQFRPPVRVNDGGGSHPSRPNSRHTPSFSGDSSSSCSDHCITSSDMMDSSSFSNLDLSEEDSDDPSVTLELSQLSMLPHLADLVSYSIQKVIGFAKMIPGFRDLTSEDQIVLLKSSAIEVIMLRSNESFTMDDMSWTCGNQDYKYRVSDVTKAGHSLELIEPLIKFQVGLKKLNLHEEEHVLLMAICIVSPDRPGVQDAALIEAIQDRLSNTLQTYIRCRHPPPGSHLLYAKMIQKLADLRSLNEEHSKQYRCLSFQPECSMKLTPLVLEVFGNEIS
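VDR–SRC2-3 interaction, FP format. Cmpds 23 nl via pintool, brief spin, 2 h ambient incubation.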
* = called active by the depositor; ? = inconclusive; & = joins results of further samples; ! = repeats disagree; [ ] = remark or other dose. % is scaled to controls: 0 for no effect and ±100 for the full control effect; potency is read from the fitted curve at half-maximal effect. A portion of the library; count on the stated rates, not on these rows.

SMILES	VDR inh
CN1C(=O)Cn2c1nc1ccccc12	10%
NC(=O)C1(N2CCCCC2)CCN(C(=O)CSc2nc(C(F)(F)F)cc(=O)[nH]2)CC1	8%
Cc1ccc(C(=O)Nc2ccccc2Oc2ccccc2)cc1[N+](=O)[O-]	-5%
COc1ccc(CNC(=O)CCCn2c(=O)c3cccn3c3ccc(F)cc32)cc1OC	7%
COc1ccc(C2C(C#N)=C(N)Oc3cc(C)n(CCN4CCOCC4)c(=O)c32)cc1OC (stereo not drawn)	6%
COc1ccc(C(=O)N2CCC(C(=O)Nc3ccc4c(c3)OCO4)CC2)cc1	-1%
Cc1cc(/C=C2\SC(=S)NC2=O)c(C)n1C	-5%
CC[C@]12c3[nH]c4ccc(OC)cc4c3CCN1C(=O)C(CC(=O)NCc1ccco1)C[C@@H]2C(=O)N1CCN(C(=O)C2CC2)CC1 (stereo partly drawn)	-10%
COc1ccc(-c2c(C#N)c(SCC(=O)Nc3ccc(C)cc3)nc(C)c2C(=O)Nc2ccccc2)cc1	-4%
COCc1[nH]nc2c1C(c1cc(OC)c(O)c(OC)c1)C(C#N)=C(N)O2 (stereo not drawn)	4%
C=CCC(=O)N1CCC(n2nccc2NC(=O)CCOc2ccccc2)CC1	1%
COc1ccc(NC(=O)CCNC(=O)Cn2ccc3ccccc3c2=O)cc1Cl	-8%
Cc1cccc(OCC(=O)NCCNC(=O)c2cccnc2)c1	-13%
COC(=O)c1c(NC(=O)CN2C(=O)C(=O)N(CC(C)C)C2=O)sc2c1CCCCC2	-12%
COc1ccc(CCN(C)C(=O)CSc2nc3ncc(Cl)cc3[nH]2)cc1OC	-6%
O=C(Cc1ccsc1)NNC(=O)c1ccccc1Cl	3%
COc1cc(CC(=O)Nc2cc(S(C)(=O)=O)ccc2Cl)cc(OC)c1OC	-15%
Cc1cc(-c2ccccc2)n(-c2ccc(C(=O)N3CCN(c4ncccn4)CC3)cc2)n1	-4%
O=[N+]([O-])C(/C=C(/Cl)[N+](=O)[O-])=C(N1CCCCC1)N1CCCCC1	0%
O=C(Cc1cccs1)N1CCN(S(=O)(=O)c2ccccc2)CC1	-22%
COc1cc(-c2noc(-c3ccc(NCC4CCCO4)c([N+](=O)[O-])c3)n2)cc(OC)c1OC (stereo not drawn)	-1%
NS(=O)(=O)c1ccc(CNC(=O)CCCSc2ccccc2)cc1	-7%
COc1ccc(CC(=O)OCCN(C)C)cc1	3%
Cc1ccc(Cl)cc1N1CCN(C(=O)c2cc3c(-c4ccccc4F)nn(C)c3s2)CC1	-5%

Quoted from the results shown, 6 compounds:
SMILES	VDR inh
Cc1cccc(OCC(=O)NCCNC(=O)c2cccnc2)c1	-13%
COC(=O)c1c(NC(=O)CN2C(=O)C(=O)N(CC(C)C)C2=O)sc2c1CCCCC2	-12%
COc1ccc(CCN(C)C(=O)CSc2nc3ncc(Cl)cc3[nH]2)cc1OC	-6%
O=C(Cc1ccsc1)NNC(=O)c1ccccc1Cl	3%
COc1cc(CC(=O)Nc2cc(S(C)(=O)=O)ccc2Cl)cc(OC)c1OC	-15%
Cc1cc(-c2ccccc2)n(-c2ccc(C(=O)N3CCN(c4ncccn4)CC3)cc2)n1	-4%

(more compounds)
SMILES	VDR inh
COc1ccc(Br)cc1/C=N/Nc1cccc(C(=O)O)c1	-13%
O=C(COC(=O)c1ccc(O)cc1O)NC1CCCCCC1	0%
COc1ccc(NC(=O)c2ccccc2NC(=O)C2CCCO2)cc1 (stereo not drawn)	-3%
Cc1ccc(-c2cc(C(=O)N/N=C/c3ccc(F)cc3)n[nH]2)o1	0%
Cc1ccc2c(n1)sc1c(-c3ccccc3)c(C#N)c(N)nc12	8%
c1ccc(Cn2nnnc2CN2CCN(c3ncccn3)CC2)cc1	-26%
COc1ccc(NC(=O)C2C3CCC(C3)C2C(=O)O)cc1OC (stereo not drawn)	3%
CCCS(=O)(=O)Nc1cccc(-c2cn3ccc(C)cc3n2)c1	-8%
OCC(O)CN1CCCC1 (stereo not drawn)	4%
Fc1ccc(F)c(NC2=NCCCCC2)c1	-6%
CN(C)C(CNC(=O)c1cccc(C#N)c1)c1ccco1 (stereo not drawn)	0%
COc1cc2ccccc2cc1C(=O)Nc1ccc(N2CCOCC2)cc1	-6%

Compounds above with a COOH group:
SMILES	VDR inh
COc1ccc(Br)cc1/C=N/Nc1cccc(C(=O)O)c1	-13%
COc1ccc(NC(=O)C2C3CCC(C3)C2C(=O)O)cc1OC (stereo not drawn)	3%

(listing goes on)
SMILES	VDR inh
CC(C)CCSc1ncnc2c1oc1nc3c(cc12)COC(C)(C)C3	14%
CCCCOC1CC(c2ccc(OCc3ccc(OC)cc3)c(OC)c2)N(C)O1 (stereo not drawn)	-20%
O=C1c2ccccc2C(=O)N1CN(C(=O)COc1ccccc1)c1ccc(F)cc1	-16%
CN(C(=O)c1cccc(NC(=O)Cc2ccc(NC(=O)C3CCCN(C(=O)C4CC4)C3)cc2)c1)C1CC1 (stereo not drawn)	-6%
COc1cccc(Nc2nc3cc(C)ccc3nc2NS(=O)(=O)c2ccc(Cl)cc2)c1	4%
COC(=O)c1ccc(-c2noc(CN(Cc3ccccn3)CC3CCCO3)n2)cc1 (stereo not drawn)	-6%
Cc1noc(C)c1COC(=O)c1cc(C)n(-c2ccccc2)c1C	-10%
CC(=O)O[C@]1(C(C)=O)CC[C@H]2[C@@H]3C=CC4=CC(=O)C=C[C@]4(C)[C@H]3CC[C@@]21C	1%
Cc1ccc(-n2ncc3c(NCC(C)C)ncnc32)c(C)c1	-7%
Cc1ccc(OC(C)C)c(CN(CCO)CCO)c1	10%
O=C(CCc1ccccc1)NNC(=O)c1ccccc1Cl	-16%
CCc1ccc(OCC(=O)NC(NC(=S)Nc2ccccc2)C(Cl)(Cl)Cl)cc1 (stereo not drawn)	?
CCCCC(CCc1ccccn1)C(=O)c1ccccc1 (stereo not drawn)	-18%
O=C(C1CCCN(Cc2ccccc2)C1)N1CCc2ccccc2C1 (stereo not drawn)	4%
Cc1cccc(NS(=O)(=O)c2ccc(NS(=O)(=O)c3cccs3)cc2)c1	1%
CCCCc1ccc(NC(=O)Cn2c(=O)c(N3CCCCC3)c(N)n(C)c2=O)cc1	-7%
COc1ccccc1NS(=O)(=O)CC12CCC(CC1=O)C2(C)C (stereo not drawn)	-7%
CCOc1ccc(C2CC(=O)c3c([nH]c(C(=O)OC4CCCCCC4)c3C)C2)cc1 (stereo not drawn)	14%
Nc1c(C(=O)Nc2ccccc2Cl)c2ccccn2c1C(=O)c1ccccc1	19%
O=C(CN1CCN(Cc2ccc(Cl)cc2)C1=O)NCc1cccs1	-6%
O=C(NCC1CCN(S(=O)(=O)c2ccccc2)CC1)Nc1ccc(F)cc1F	8%
CC1(C)CC(=O)CC(C2(O)C(=O)N(Cc3ccccc3)c3ccccc32)O1 (stereo not drawn)	-10%
CCCCOc1ccc(C(=O)NCC(=O)N(C)CC(=O)Nc2ccc(N3CCOCC3)cc2)cc1	-15%
COc1ccc(-c2c(C)n([O-])c(C)c(-c3ccccc3)[n+]2=O)cc1OC	-7%
CCOC(=O)c1ccc(NC(=O)Cn2nc(C)c3ccccc3c2=O)cc1	-11%
CC(=O)Nc1csc2ccccc12	-3%
Cc1cccc(C(=O)OCC(=O)c2csc(N3CCCCC3)n2)c1[N+](=O)[O-]	0%
O=C(NCc1ccc(Cl)cc1Cl)c1ccccn1	1%
c1ccc2oc(-c3[nH]ncc3CN3CCC(N4CCSCC4)CC3)cc2c1	-1%
Cc1csc(NC(=O)CCc2ccc(S(=O)(=O)N3CCOCC3)cc2)n1	-7%
Cc1ccc(S(=O)(=O)N(CC(O)CN(C)C)c2ccccc2)cc1 (stereo not drawn)	18%
Cc1ccc(NC(=O)CCc2c(C)nn(-c3ccc(N4CCOCC4)nn3)c2C)c(C)c1	-6%&6%
Cc1cc(C)n(-c2ccc(Cl)c(C(=O)OCC(N)=O)n2)n1	13%
NCCCNC(=O)c1ccc(/C=N/O)nc1	-3%
CCOc1ccc(Cc2c(Cl)nc(SC)nc2OC)cc1	-2%
CN(C(=O)C1CCOC1)c1nnc(-c2cnccn2)s1 (stereo not drawn)	-11%
CSc1nnc2n(C)c3c(c(=O)n12)C1(CCCC1)Cc1ccccc1-3	6%
CCOC(=O)c1ccc(NC(=S)N2CCN(c3ccccn3)CC2)cc1	-9%
CN1CCc2cccc3c2[C@@H]1Cc1ccc(O)c(O)c1-3	32µM*!
COc1cc2cc(C(c3nnnn3C3CCCCC3)N(C)C3CCCCC3)c(=O)[nH]c2cc1OC (stereo not drawn)	-9%
N=C1/C(=C\c2ccc(Br)o2)C(=O)N=C2SC(CC(=O)N3CCOCC3)=NN12	-10%
C=C(C1=CCN(S(=O)(=O)C(C)(C)C)[C@H]1CCO)c1ccccc1	2%
CC(C)c1onc(C(=O)Nc2cccc(O)c2)c1[N+](=O)[O-]	4%
C#CCSc1nc(-c2ccccc2)c2cc(Cl)ccc2n1	-18%
CC(=O)Oc1cccc(Nc2ncnc3ccccc23)c1	-10%
Oc1cc(O)c2c(c1)O[C@H](c1ccc(O)c(O)c1)[C@H](O)C2	-19%&-9%&-13%
C/C(=N\Nc1nc(N2CCOCC2)nc(N2CCOCC2)n1)c1cccs1	1%
CCCc1nc2n[nH]c(N)c2c2c1COC(C)(C)C2	16%
CC1(C)Cc2c(sc3nc(SCC(=O)N4CCOCC4)nc(N)c23)CO1	-8%
Cc1ccc(N2C(=O)/C(=C/c3cccnc3)SC2=S)cc1	-10%
CC(Oc1ccccc1)C(=O)NC1C(=O)N2C1SC(C)(C)C2C(=O)O (stereo not drawn)	-7%
CC1(c2ccc3c(c2)OCCCO3)NC(=O)N(CC(=O)NCCc2ccccc2)C1=O (stereo not drawn)	6%
CN1C[C@H]2CON(C)[C@H]2C[C@H]1c1cccc(N2CCOCC2)c1	-17%
COc1ccc(OCC(=O)Nc2ccc3c(c2)CCC3)cc1	-2%
Cc1ccc(N2C(=O)C(c3c(C)[nH]n(-c4ccccc4)c3=O)(C(F)(F)F)C3=C2CC(C)(C)CC3=O)cc1 (stereo not drawn)	-15%
COc1ccc(CC2(CO)CCN(C(C)COc3ccccc3)CC2)cc1 (stereo not drawn)	13%
CS(=O)(=O)c1ccc(-c2sc3ccccc3c2C#CCCO)cc1	-24%
COc1ccc(C(=O)NC(=S)N2CC(C)OC(C)C2)cc1 (stereo not drawn)	-6%
CCN(CC(=O)NCc1ccc(F)cc1)CC(=O)Nc1ccccc1-c1ccccc1	0%
O=C(OCc1ccccc1)N1CCC2CC1c1cc(-c3ccc4c(c3)OCO4)ccc12 (stereo not drawn)	-8%

Additional results
SMILES	VDR inh
CN(Cc1ccco1)C(=O)CN1C(=O)NC2(CCCC2)C1=O	-26%
CC(=O)Oc1ccc(C(=O)Nc2ccccc2NC(=O)c2ccc(OC(C)=O)cc2)cc1	-2%
Cc1ccc(CNC(=O)Cc2nc3nc(C)cc(C)n3n2)cc1	-2%
O=C(NC12CC3CC(CC(C3)C1)C2)N1CCN(S(=O)(=O)c2ccc(Cl)cc2)CC1	6%
COc1ccc(S(=O)(=O)N(CCc2ccccc2)CC(=O)N/N=C/c2ccc3c(c2)OCO3)cc1	-29%
COc1ccc(CCC(C)NC2C3CC4CC(C3)CC2C4)cc1 (stereo not drawn)	18%
O=S(=O)(/N=C(/Sc1ccc(Cl)cc1)c1ccccc1)c1ccccc1	35µM*
CN(C(=O)c1ccc(NC(=O)Cc2ccc(NC(=O)C3CCN(C(=O)C4CC4)CC3)cc2)cc1)C1CC1	6%
Cn1c2ccccc2c2cnn(CC(=O)NCc3ccc(Cl)cc3)c(=O)c21	-5%
CCOC(=O)N1CCN(C(=O)C2CCCN(c3nc4ccc(OCC)cc4s3)C2)CC1 (stereo not drawn)	-9%
Cc1ccc(C)c(NC(=O)CCc2c(C)nn(-c3ccc(N4CCCC4)nn3)c2C)c1	-2%
Cn1nc(CC(=O)Nc2ccc3c(c2)OCCO3)c2ccccc2c1=O	-3%

A different layout for part of the listing above.
CSc1nnc2n(C)c3c(c(=O)n12)C1(CCCC1)Cc1ccccc1-3
  VDR inh: 6%

COc1ccc(Br)cc1/C=N/Nc1cccc(C(=O)O)c1
  VDR inh: -13%

Further entries follow:
SMILES	VDR inh
Cc1ccccc1OC/C(O)=C(\C#N)c1nc2ccccc2[nH]1	-3%
CCCc1cc(C(=O)Nc2cccc3ccccc23)n(C)n1	2%
Cc1cnc2cc(Cl)c(Cl)cc2n1	21%
CCCCNC(=O)[C@H](CSCc1ccccc1)N1Cc2ccccc2C1=O	2%
c1ccc(CCCCc2ccncc2)cc1	15%
CCOC(=O)c1ccccc1NC(=O)CSc1nc(N)cc(=O)[nH]1	8%
Cc1nn(CC(=O)Nc2ccc(Cl)cc2)c(=O)c2cc(-c3ccccc3)nn12	2%
CCOc1ccc(CNc2ccc(S(N)(=O)=O)cc2)cc1	32%[activator]
CCOc1ccc(Nc2ncnc3c2cnn3Cc2ccccc2)cc1	5%
O=S(=O)(c1ccc2ccccc2c1)N1CCCOC1	6%
Cc1ccc(C)c(Cn2nnc3c(=O)[nH]c(C(=O)NCC4CCCO4)nc32)c1 (stereo not drawn)	-8%
O=C(Cn1c(=O)n(CC2CCC(C(=O)NCCc3ccccc3)CC2)c(=O)c2ccccc21)Nc1cccc(F)c1 (stereo not drawn)	-17%
O=c1c2sc3ccccc3c2n(Cc2ccccc2)c(=O)n1CCc1ccccc1	6%
CC[C@H](C)[C@@H]1NC(=O)[C@H]([C@@H](C)CC)NC(=O)[C@@H](CC(C)C)NC(=O)[C@H](Cc2ccccc2)NC(=O)[C@H](Cc2ccccc2)NC(=O)[C@@H]2CCCN2C(=O)[C@@H]2CCCN2C(=O)[C@H](C(C)C)NC(=O)[C@H](CC(C)C)NC1=O	-5%
COc1cc(C(=O)N(Cc2ccco2)Cc2cc3ccccc3[nH]c2=O)cc(OC)c1OC	21%
CN(C)CCNC(=O)c1ccc(CS(=O)(=O)c2c(Cl)cccc2Cl)o1	-16%
COc1ccc(CCNC(=O)c2c(-c3ccccc3)noc2C)cc1OC	-4%
COc1cc2c(cc1OC)CN(C(=O)c1ccc(OC)c([N+](=O)[O-])c1)CC2	11%
OC(COCCOc1ccc(Br)cc1)CN1CCN(Cc2ccccc2)CC1 (stereo not drawn)	-12%
